Bioassay records from PubChem BioAssay.
D2 agonist – agonists of human D2 dopamine receptor (beta-arrestin). P14416. DiscoveRx PathHunter D2 beta-arrestin, luminescence, 90 min; 100% = 57 uM dopamine signal. activation, % (no concentration beside the values). actives 0.084% (n = 360,000). AID 624465; in the data active = activation above about 40%; inconclusive = about 15% to 40%; inactive = below about 15%; further: compound concentration not given in the record; the text of the record calls up to 30% inactive
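Agonist mode: compounds alone added to overnight-plated D2 PathHunter cells for 90 min at 37 C, with 57 uM final dopamine (EC100) defining full response. Beta-arrestin recruitment detected by chemiluminescent reagent, read after 1 h at ambient temperature.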
TRPML1 ag – human mucolipin-1 channel agonism | TRPML1-expressing cells, Ca2+ dye fluorescence, FDSS; host cell line not named in the record; reference of the full effect not given here | activation, % (test concentration not listed) | actives 0.12% (n = 410,000) | AID 624414; in the data active = activation above about 50%; inconclusive = about 30% to 50%; inactive = below about 30%; further: 0% is about no effect; the text of the record puts the active cut at 80%
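Tet-induced TRPML1-DL cells, 1,500 per well, cultured overnight, were loaded with a no-wash Ca2+ dye for 45–90 min. Calcium fluorescence was recorded on the FDSS for 110 s after compound addition, before the EC80 agonist (4 uM 54-4) was added.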
D2 PAM – human D2 receptor positive allosteric modulation; P14416; DiscoveRx D2 beta-arrestin cells, luminescence, 90 min; 100% = 57 uM dopamine signal; potentiation, % (concentration not given with the values); actives 0.23% (n = 360,000); active = potentiation of 50% or more; inconclusive = 30% to 50%; inactive = 30% or less;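 further: compound concentration not given in the record; tested on top of an EC20 dose of dopamine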
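D2 cells co-treated with compound plus 50 nM dopamine (EC20) for 90 min at 37 deg C to detect potentiation. Beta-arrestin recruitment was read as enzyme-fragment luminescence after 1 h at ambient temperature. Full response was set by 57 uM dopamine.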
TRPML1 blocker – inhibitors of human TRPML1 channel; actives 0.02% (n = 390,000); activity change, negative = inhibition, % (test concentration not listed); Q9GZU1; TRPML1-inducible cells, Ca2+ dye fluorescence, FDSS; active compounds read low; inhibition of EC80 agonist-evoked calcium signal; AID 624415; in the data active means activity change below about -50%; inconclusive means about -30% to -50%; inactive means above about -30%;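 further: stimulus is agonist 54-4 at its EC80 concentration; on the % scale 0 is the no-effect control and ±100 the full control effect; compound concentration not given in the record; the text of the record puts the active cut at -80%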
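Calcium fluorescence in TRPML1-DL cells induced overnight with Tet: a 110 s read after compound pin addition, then a 110 s antagonist read after challenge with 54-4 at 4 uM final (EC80).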
Six1-Eya2 inh – inhibitors of human Six1/Eya2 interaction | activity change, % (test concentration not listed) | Q15475+O00167 | AlphaScreen GST-Six1/His-Eya2 binding, biochemical; active compounds read low; control for the full effect not named in the record | actives 0.56% (n = 360,000) | AID 651725; in the data active = activity change below about -65%; inconclusive = about -30% to -65%; inactive = above about -30%; further: on the % scale 0 is the no-effect control and ±100 the full control effect
Target sequence (O00167 whole entry, looked up): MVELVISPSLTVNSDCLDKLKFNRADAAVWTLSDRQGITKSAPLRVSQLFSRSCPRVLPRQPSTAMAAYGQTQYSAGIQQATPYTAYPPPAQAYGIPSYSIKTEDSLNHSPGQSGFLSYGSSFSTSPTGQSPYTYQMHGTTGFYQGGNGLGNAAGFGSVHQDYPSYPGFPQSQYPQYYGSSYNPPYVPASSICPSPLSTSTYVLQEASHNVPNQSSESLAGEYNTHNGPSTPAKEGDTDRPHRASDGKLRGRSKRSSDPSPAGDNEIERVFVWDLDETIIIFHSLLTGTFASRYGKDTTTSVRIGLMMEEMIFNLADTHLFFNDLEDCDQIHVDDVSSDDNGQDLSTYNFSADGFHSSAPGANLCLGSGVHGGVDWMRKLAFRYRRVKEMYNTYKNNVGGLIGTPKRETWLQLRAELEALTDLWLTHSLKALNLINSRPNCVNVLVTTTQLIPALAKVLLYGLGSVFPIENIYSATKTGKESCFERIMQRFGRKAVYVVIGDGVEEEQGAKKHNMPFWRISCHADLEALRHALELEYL
Target sequence (Q15475 whole entry, looked up): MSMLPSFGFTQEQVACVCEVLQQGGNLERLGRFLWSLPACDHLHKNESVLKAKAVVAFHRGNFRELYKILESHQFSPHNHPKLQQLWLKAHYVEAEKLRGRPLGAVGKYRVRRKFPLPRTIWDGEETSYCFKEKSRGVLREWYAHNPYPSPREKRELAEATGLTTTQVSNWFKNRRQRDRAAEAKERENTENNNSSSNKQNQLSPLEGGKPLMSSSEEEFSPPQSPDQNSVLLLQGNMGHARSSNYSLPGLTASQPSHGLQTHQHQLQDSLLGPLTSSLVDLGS
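Homogeneous AlphaScreen proximity assay pairing GST-Six1 with His-tagged Eya2 (added as 5X mix: 250 nM and 500 nM) in 50 mM Tris pH 8.0, 300 mM NaCl, 1 mM TCEP. Glutathione donor and nickel acceptor beads; 1 h, 37 °C, dark.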
PINK1 expr mod – modulators of PINK1 expression; actives 0.2% (n = 410,000); Potency, µM (top dose mostly 76.6 µM), for inactives: top-dose activation (PINK1 increase), most hits filed as activators; PINK1 immunofluorescence, high-content cytometry, 24 h; AID 624263; active = well fitted activation curve with a large enough effect; inconclusive = small, poorly fitted or top-dose-only effect; inactive = flat fitted curve, though single readings scatter; cell line not stated here;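 further: potency means the concentration at half of the fitted maximal effect; % of control where 0% means no effect; nearly all actives have a fitted effect of over 65% in size; a mitochondrial uncoupler was the plate control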
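Stable cell line treated 24 h with compounds at 5 concentrations (CCCP controls), then fixed and immunostained for PINK1 plus nuclear and cell stains; PINK1 immunofluorescence quantified by laser-scanning microplate cytometry.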
* hit, by the source's call; ? = inconclusive; . = not tested or not shown; [ ] = another dose, or the depositor's remark.

SMILES | D2 agonist | TRPML1 ag | D2 PAM | TRPML1 blocker | Six1-Eya2 inh | PINK1 expr mod
Nc1ccccc1-c1ccc(Cl)cc1 | -0.3 | 1.3 | -3.8 | 66.6 | 4.8 | 2.2%
Cc1cccc(NC(=O)c2cnc3scc(C)n3c2=O)c1 | -7.0 | -0.8 | -1.7 | 7.1 | 15.4 | -0.9%
CC[C@@]1(C(=O)OC)N[C@H](CN(C)C(=O)c2ccccc2)[C@@H]2C(=O)N(C)C(=O)[C@@H]21 | -1.5 | 0.9 | -3.5 | 2.9 | 6.2 | 0.1%
CC(C)CC(=O)N1CCN(C(=O)c2ccc(F)cc2)CC1 | 0.0 | 0.0 | 2.5 | -2.9 | 5.0 | -0.3%
CCC(C)Nc1nc2ccccc2n2c(C)nnc12 (configuration not stated) | -1.5 | . | -2.1 | . | -12.6 | 5.0%
CC1(C(=O)OCC(=O)Nc2ncc(Cl)cc2Cl)CC1(Cl)Cl (configuration not stated) | 5.3 | -0.3 | -3.5 | -2.2 | 4.5 | 4.9%
N#CC1=C(N)N(c2cccc(Cl)c2)C2=C(C(=O)CCC2)C1c1cc(CN2CCOCC2)cs1 (configuration not stated) | . | -0.9 | . | 6.4 | . | -0.7%
O=Cc1sc(Nc2ccccc2)nc1Cl | -8.4 | 0.0 | -4.8 | 3.6 | 4.4 | 3.6%
O=C1c2ccccc2NC(c2ccccc2O)N1c1ccc(F)cc1 (configuration not stated) | 6.1 | 2.2 | 3.7 | 13.9 | 2.3 | -1.3%
Cc1ccc(CNC(=O)CN(C(=O)C2(C)CC(=O)N=C3C=CC=CN32)c2ccc(F)cc2)cc1 (configuration not stated) | -6.9 | -1.5 | -6.2 | 5.5 | 5.7 | 3.6%
CCOC(=O)CC(NC(=O)c1cc2c(=O)n3cccc(C)c3nc2s1)c1ccc(OCC)c(OC)c1 (configuration not stated) | . | 3.8 | . | -5.0 | . | 4.4%
CC(Oc1ccccc1)C(=O)N=C1SC2CS(=O)(=O)CC2N1c1ccc(F)cc1 (configuration not stated) | 1.0 | -0.4 | -6.3 | -4.5 | 1.3 | 0.2%
O=C(Nc1ccc2ccccc2c1)N1CCN(c2ncccc2C(F)(F)F)CC1 | -2.5 | -0.1 | -37.7 | -5.4 | -0.8 | -0.2%
O=C(NC1CCCCC1)N1CCNCC1 | -2.5 | 0.3 | -8.1 | -7.9 | 8.0 | -0.3%
Cc1cc(C)n2nc(SCCOc3ccccc3)nc2n1 | -3.6 | 0.0 | -4.6 | 0.5 | ? | -0.1%
CNc1oc(-c2ccccc2)nc1S(=O)(=O)c1ccc(C)cc1 | -2.7 | 0.8 | -5.8 | -11.6 | -4.0 | 3.0%
Cn1cc(/C=N\O)nc2c(=O)n(-c3ccccc3)c(=O)nc1-2 | 2.2 | -0.2 | -0.7 | 8.2 | 18.2 | -0.3%
Clc1ccc(Cl)c(-c2ccc(/C=N/c3ncn[nH]3)o2)c1 | -3.3 | 2.4 | -5.9 | 30.7 | 2.3 | 1.8%[38.3 µM]
CCOc1ccc(C(=O)NC(=S)NCc2cccnc2)cc1[N+](=O)[O-] | 3.9 | 2.4 | 6.0 | 11.0 | -1.7 | 0.1%
COc1ccc(C(=O)NCCc2nnc3ccc(SCC(=O)NCCc4ccc(OC)c(OC)c4)nn23)cc1 | 1.7 | 0.3 | -6.3 | -8.5 | 1.0 | -0.6%
CS(=O)(=O)Nc1ccccc1C(=O)NCCSCc1ccccc1 | -3.9 | -0.6 | -17.4 | -2.1 | 5.6 | -0.4%
CCN(CC)c1ccc(C=NN2CCCCCC2)cc1 | 4.0 | -0.9 | -5.2 | -4.9 | -3.3 | 5.2%
COc1ccc([N+](=O)[O-])cc1NC(=O)C(C)OC(=O)Cn1[nH]c(=O)c2ccccc2c1=O (configuration not stated) | -6.1 | -0.4 | -6.0 | 3.0 | -0.3 | -1.2%
CC1(C)CCCC2=C1CC1C(=O)N(Cc3cccnc3)C(=O)C1C2 (configuration not stated) | -1.0 | -1.0 | -2.6 | 6.1 | 4.9 | -1.8%
CCC1=C(c2ccc(C)cc2)S(=O)(=O)N=C1N1CCC(C(=O)NCCCN2CCCCC2C)CC1 (configuration not stated) | -1.2 | -0.1 | -16.5 | 7.6 | -5.7 | -1.0%
CCOc1ccc(NC(=O)NCCc2c(C)nn(C)c2C)cc1 | . | -1.1 | . | -7.0 | . | -0.9%
CSc1cccc(NC(=S)N2CCCN(Cc3ccccc3F)C2)c1 | -1.6 | -1.4 | -19.0 | 2.7 | -17.0 | -1.9%
CC(C)(C)OC(=O)N1CCC(c2c(C(=O)N3CCN(c4ncccn4)CC3)cnn2-c2ccccc2)CC1 | . | 0.0 | . | -1.3 | . | 0.5%
CCc1cccc(CC)c1NC(=O)COC(=O)c1ccccc1-c1nc2ccccc2s1 | -5.7 | 2.6 | -24.8 | 45.2 | -5.8 | 6.2%
CCOC(=O)N1CCc2c(sc(NCc3cccs3)c2C(=O)Nc2ccc(OC)cc2OC)C1 | . | 1.1 | . | ? | . | 2.0%
Cc1ccc(C)c(NC(=O)COC(=O)c2ccc[n+]([O-])c2)c1 | -2.5 | 0.3 | 3.1 | 13.6 | -4.0 | -0.8%
CC1SC(C)C(=O)N(CC(=O)Nc2ccc3c(c2)OCO3)C1=O (configuration not stated) | 0.3 | 0.0 | 1.0 | -20.6 | 1.7 | 5.1%
COC(=O)c1ccc(NC(=O)c2ccccc2)o1 | -0.5 | -0.5 | -0.8 | 25.5 | -1.0 | 6.8%
COCCCNC(=S)NC1CC2CCC(C1)N2Cc1ccccc1 (configuration not stated) | -4.1 | -0.2 | -16.2 | 50.5 | -1.6 | -0.7%
CCC(=O)N=c1n(C)c2ccccc2n1CCOc1ccccc1 | -0.3 | -0.1 | -6.6 | -15.8 | -7.9 | 2.0%
CC(NC(=O)C(C)N1C(=O)c2cccc([N+](=O)[O-])c2C1=O)c1ccccc1 (configuration not stated) | -0.3 | 1.6 | -8.6 | -11.6 | -3.4 | -0.1%
O=C(C1CC=CCC1)N1CCN(S(=O)(=O)c2ccc(F)cc2)CC1 (configuration not stated) | -1.6 | 1.1 | 1.7 | 69.1 | 7.2 | -1.1%
CC(C)C(=O)Nc1cccc(COc2ccc(CN(Cc3ccccc3)C(=O)OC(C)(C)C)cc2)c1 | -1.3 | 2.5 | -5.5 | -13.2 | 1.4 | 0.8%
Cc1ccccc1-c1nc2sc(-c3ccccc3)cc2c(=O)o1 | -1.7 | -1.0 | 6.0 | 5.0 | 2.0 | 4.6%
Cn1cnc2c(=O)oc3ccc(S(=O)(=O)N4CCN(c5ccccc5F)CC4)cc3c21 | . | -0.4 | . | 1.3 | . | 5.5%
Nc1cccc(-c2nc3ccccc3[nH]2)c1 | 0.9 | 0.9 | -11.3 | -3.1 | -3.6 | 2.4%[38.3 µM]
CCCC(CCC)=NNC(=O)CN(Cc1ccccc1)S(=O)(=O)c1ccccc1 | 6.0 | 0.4 | 9.2 | 0.9 | -0.9 | 0.3%
Cc1ccc(NCc2cc3cc4c(cc3n(CC(=O)Nc3ccc(C)cc3)c2=O)OCCO4)cc1 | . | 5.4 | . | 10.6 | . | 1.8%
CC(Sc1ncc(C(F)(F)F)cc1Cl)C(=O)NC(N)=O (configuration not stated) | -3.7 | -0.4 | -13.8 | 46.6 | -3.6 | 1.1%
COC(=O)c1cccc(NC(=O)NC(=O)c2ccc(Cl)cc2)c1 | -0.5 | -0.5 | -11.6 | 8.9 | -0.2 | 7.3%
CCC(=O)Nc1nnc(S(=O)(=O)N(CC)c2ccc(OC)cc2)s1 | 2.8 | 0.9 | -2.6 | -5.3 | 3.4 | 0.5%
O=C(CCCn1c(=O)c2sccc2n(Cc2cccc(Cl)c2)c1=O)NCc1ccc2c(c1)OCO2 | . | 0.9 | . | -8.1 | . | -0.7%
O=C(CSc1nc(-c2ccco2)nc2cc(=O)[nH]n12)Nc1ccc(F)cc1 | . | -0.8 | . | 31.1 | . | 4.0%
CC(=O)C(C)Oc1ncn(-c2ccccc2)n1 (configuration not stated) | 0.8 | -0.2 | -17.1 | -8.0 | 4.6 | 1.2%
CC(=O)Cc1nsc(NC(=O)c2ccc(-c3ccc(Cl)cc3Cl)o2)n1 | -3.7 | 0.6 | -5.7 | 1.2 | 3.9 | 9.5%
Cc1cc(NC(=O)c2ccc(C)c([N+](=O)[O-])c2)no1 | -5.1 | -0.5 | 0.7 | 15.9 | -10.8 | 5.0%
COc1ccc(CNC(=S)Nc2ccc(-c3ccccc3)cc2)cc1 | 2.3 | 1.6 | 2.7 | -4.8 | -12.1 | 8.1%
CCOc1ccc(S(=O)(=O)c2cn(C)c3ccccc3c2=O)cc1 | . | -0.8 | . | 5.2 | . | -0.8%
Cc1ccc(CNc2ccccc2C(=O)O)s1 | -4.1 | . | -3.5 | . | 5.8 | 1.7%
CCN1CCN(C(=O)/C(C#N)=C/c2ccc(OC(F)F)cc2)CC1 | -3.9 | 0.9 | -5.2 | -1.3 | 10.7 | 2.0%
Cc1nn(-c2ccccc2)c(C)c1N | 3.8 | -0.2 | -5.5 | 4.2 | -1.9 | -1.6%
Cc1ccc(NC(=O)Cn2ncc3c([nH]c4ccccc43)c2=O)cc1Cl | 6.7 | 0.5 | -5.0 | -16.7 | 0.9 | 0.3%
COc1nc2c(c(-c3cc(Br)cs3)c1C#N)Cc1ccccc1-2 | -3.5 | 3.3 | -2.3 | 19.0 | 6.9 | 11.7%
Cc1cccc(NC(=O)CSCC(=O)NCc2ccco2)c1 | -2.3 | 0.3 | -7.6 | -5.3 | -2.2 | 0.1%
COCCCNC(=O)c1cc(Sc2nnc(C)s2)nc2ccccc12 | -0.6 | 0.7 | -3.5 | 2.2 | 8.9 | -1.4%

Quoted from the listing.
In D2 agonist, CC(=O)Cc1nsc(NC(=O)c2ccc(-c3ccc(Cl)cc3Cl)o2)n1 has the entry -3.7
In D2 PAM, Cc1ccc(CNc2ccccc2C(=O)O)s1 has the entry -3.5

(further entries)
SMILES | D2 agonist | TRPML1 ag | D2 PAM | TRPML1 blocker | Six1-Eya2 inh | PINK1 expr mod
c1ccc(Sc2ccncc2)cc1 | -4.0 | -0.9 | -10.9 | 10.3 | 0.6 | -0.2%
COc1ccc(CC(=O)Nc2nc(-c3ccc(F)c(F)c3)cs2)cc1 | -2.6 | 2.6 | -2.3 | 30.9 | 8.9 | -0.8%
CSCC[C@H](N)C(=O)N1CCC(C(=O)N[C@H](C)C(=O)NC(C)c2ccccc2)CC1 (some centres not stated) | -2.3 | . | 6.2 | . | -3.7 | 1.1%
O=C(O)/C=C/C(=O)NNc1ccc([N+](=O)[O-])cc1 | -4.4 | -0.2 | -8.2 | 7.6 | 2.2 | -0.3%
Cc1ccccc1NC(=S)N(CCN(C)C)C(C)c1ccccn1 (configuration not stated) | -2.2 | 0.1 | -19.9 | 8.3 | -65.1* | 0.6%
COc1ccc(CC(=O)OCC(=O)c2ccc(F)cc2)cc1 | -0.7 | 1.1 | 4.9 | 11.6 | 12.6 | -0.7%
